NPYLR7 ag: mosquito NPYLR7 agonism; AID 1259423; HEK293T NPYLR7/Galpha15, GCaMP6s calcium fluorescence; actives 0.15% (n = 270,000); activation, % at 10 µM; in the data active = activation above about 40%;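 also: 0% = vehicle and 100% = reference agonist at the receptor; some compounds past the cut are filed as inactive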
NPYLR7 ag max-min: further read-out of NPYLR7 ag, marked with its call; activation, %; measured here: Max-Min RFU normalised activation; some inactives read as strong as hits;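 span of the calcium signal over five minutes; 0% = vehicle and 100% = native peptide agonist; compound fluorescence can raise it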
* marks the source's active call; other numbers are inactive results; & = joins results of further samples. A portion of the library; count on the stated rates, not on these rows.

The line under a structure holds: NPYLR7 ag | NPYLR7 ag max-min
> CC1CN(c2nc(Cc3ccccc3)ns2)CCN1C(=O)c1ccc([N+](=O)[O-])cc1 (stereo unspecified)
    -2 | 7
> COc1cccc2cc(C(=O)OCC(=O)c3ccccc3)c(=O)oc12
    6 | 3
> O=[N+]([O-])c1ccc(/C=N\NC2=NS(=O)(=O)c3ccccc32)cc1
    -15 | -23
> CCOc1ccc(C(=O)Nc2cc(-c3nc4cc(Cl)ccc4o3)ccc2C)cc1
    -3 | -7
> O=C(CSc1nc(=O)n2ccccc2n1)N1CCN(c2ccccc2)CC1
    3 | 0
> CCCn1c(SCc2nc3ccccc3[nH]2)nc2ccccc21
    -18 | -18
> Cc1cc(NC(=O)C2CCN(C(=O)c3csc(-c4cnn(C)c4)n3)CC2)no1
    -2 | -8
> CC1(C(=O)Nc2cccc3c2CCCC3)CCN1C(=O)C1(c2ccc(Cl)cc2)CC1 (stereo unspecified)
    -1 | -9
> COc1cc(-c2c(C#N)c(N)n3c(nc4ccccc43)c2C#N)ccc1OCc1ccccc1F
    -12 | -14
> COC(=O)Cn1nc([N+](=O)[O-])n(CC(=O)OC)c1=O
    -3 | -6
> CCc1nc([C@H]2CN(C)C[C@@H]2C(=O)N2CCC(O)CC2)c(C)[nH]1
    0 | -3
> Fc1ccc(Nc2cncc(-c3ccsc3)c2)cc1Cl
    -6 | -7
> Cc1ccc(-n2cnnc2SCC(=O)N2CCOCC2)cc1Cl
    -16 | -14
> Cc1cccc(NC(=O)CC(C)c2ccc(F)cc2)n1 (stereo unspecified)
    -16 | -21
> CN(C)C1(CNC(=O)Nc2cccc(C3SCCCS3)c2)CCCCC1
    1 | -3
> O=C(CSc1nc2c(c(=O)n1Cc1ccccc1)SCC2)N1CCCc2ccccc21
    6 | -6
> COc1ccc(/C=N\Nc2nc(-c3ccc(OC)c(OC)c3)cs2)cc1
    0 | 3
> CC(C)n1c(C2C3CCCCC32)n[nH]c1=S (stereo unspecified)
    -7 | -15
> CN(C)S(=O)(=O)c1ccc2nc(COC(=O)C3CCC3)[nH]c2c1
    3 | 2
> Cc1cc(C(=O)NCCc2ccccc2)n2nc(-c3ccccc3)cc2n1
    20 | 20
> CCC(=O)Nc1ccc(N(C)C)c(CN(CC2CC2)S(C)(=O)=O)c1
    25 | 26
> Cc1ccc2oc(C(=O)OC(C)C(=O)NC(C)(C#N)C(C)C)cc(=O)c2c1 (stereo unspecified)
    17 | 7
> CC(C)Nc1ncccc1C(=O)NCCc1ccccc1
    -9 | -11
> CC(C)(C)C(=O)Cn1cnc2sccc2c1=O
    3 | 2
> Cc1ccc(C(=O)N2CCSC23CCN(S(=O)(=O)c2ccc([N+](=O)[O-])cc2)CC3)cc1
    3 | 14
> CNc1nc2cnc(Nc3ccc(S(C)(=O)=O)cc3)cc2n1-c1cc(OC)c(OC)c(OC)c1
    -3 | -8
> O=C(c1cc(Cl)ccc1F)N1CCCC1c1ccc[nH]1 (stereo unspecified)
    -3 | -7
> CCOC(=O)C1CCN(C(c2cccs2)c2c(O)cc(C)n(CC)c2=O)CC1 (stereo unspecified)
    7 | 5
> CC(C)(CNS(C)(=O)=O)c1cccs1
    19 | 11
> N#Cc1ccccc1CSCCNC1CC2CC1C1CCCC21 (stereo unspecified)
    -2 | -5

Full records, quoted from the list. Screens in order: NPYLR7 ag	NPYLR7 ag max-min
Profile of O=C(CSc1nc2c(c(=O)n1Cc1ccccc1)SCC2)N1CCCc2ccccc21 → 6	-6
Profile of CC(C)(CNS(C)(=O)=O)c1cccs1 → 19	11
Profile of CC(C)n1c(C2C3CCCCC32)n[nH]c1=S (stereo unspecified) → -7	-15
Profile of Cc1ccc(C(=O)N2CCSC23CCN(S(=O)(=O)c2ccc([N+](=O)[O-])cc2)CC3)cc1 → 3	14
Profile of O=C(c1cc(Cl)ccc1F)N1CCCC1c1ccc[nH]1 (stereo unspecified) → -3	-7

(cont.)
The line under a structure holds: NPYLR7 ag | NPYLR7 ag max-min
> O=C(Nc1ccc2ccccc2n1)C1CSCN1C(=O)c1ccccc1 (stereo unspecified)
    3 | 10
> COc1ccc(CN(Cc2nc3cc(C)ccc3o2)C(=O)Cc2ccc(OC)c(OC)c2)cc1
    4 | 6
> Cc1nc(C(F)(F)F)ccc1C(=O)N1CCC1(C)C(=O)NCc1cccs1 (stereo unspecified)
    -2 | -1
> CCOC(=O)C1CCN(C(=O)c2cc3c(C)cc(F)cc3[nH]2)CC1
    -2 | -4
> CC(C)Oc1ccc(Nc2cc3c(cn2)cc(-c2cccnc2)n3C)cc1
    -6 | -10
> CN(C)C=CC(=O)C(F)(F)F
    2 | 1
> CC(=O)N1CCC2(CC1)OC(=O)C(C)=C2C(=O)NC1CCCCC1
    -4 | -5
> NC(=O)c1c(NC(=O)COC(=O)C2=COCCO2)sc2c1CCC2
    18 | 11
> CN(C(=O)CCc1nc2c([nH]1)c(=O)[nH]c(=O)n2C)C(c1ccc(F)cc1)C1CC1 (stereo unspecified)
    6 | -10
> CCOc1ccc(/C=N\OC(=O)c2ccccc2)cc1
    -8 | -10
> CC1CCN(C(=O)Cn2cc(SCc3ccccc3)c3ccccc32)CC1
    -12 | -15
> Cc1ccc(S(=O)(=O)NCCCC(=O)O)c(C)c1N(C)S(=O)(=O)c1ccccc1
    -8 | -14
> O=c1ccc(-c2ccncc2)nn1CCCNS(=O)(=O)c1cccnc1
    19 | 12
> O=C(CSc1nnc(CNC(=O)c2ccc(S(=O)(=O)N3CCCCC3)cc2)n1-c1ccc(F)cc1)Nc1nccs1
    11 | 10
> CC(C)CN1C(=O)C2(CCCC2)NC1c1ccc(-n2cncn2)cc1 (stereo unspecified)
    2&2 | 0&2
> CCOC(=O)[C@H](CCc1ccccc1)N[C@@H](C)C(=O)N1CCC[C@H]1C(=O)O
    -10&-8&-4 | 13&-14&-8
> COCC(c1cccc(C(F)(F)F)c1)N(C)C(=O)c1ccoc1 (stereo unspecified)
    6 | 7
> COc1ccc(-c2cc(C(=O)Nc3cccc(C(C)=O)c3)c3ccccc3n2)cc1
    -9 | -13
> O=C(Nc1ccc(N2CCCCC2)c(C(=O)NCC2CCCO2)c1)Nc1cccc2ccccc12 (stereo unspecified)
    15 | 15
> Cc1cc(=O)n(CC(=O)Nc2cc(Cl)ccc2C)c(C(C)C)n1
    8 | 1
> CNC(=O)c1nnc2n1CCN(C(=O)Cc1cccs1)C2
    8 | 3
> COc1ccc(C(=O)NC2CCC(NC(=O)[C@H]3CCCN3)CC2)cc1 (stereo partly specified)
    -3 | 1
> O=C(Nc1ccc(Br)cn1)C1(c2ccccc2)CCC1
    -1 | 0
> Cc1cccn2c(=O)nc(SCC(=O)Nc3cccc4ccccc34)nc12
    15 | 11
> CCOC(=O)c1cc(-c2cccc(NC(=O)c3cc(OC)cc(OC)c3)c2)n(-c2ccc(OC)cc2)n1
    18 | 7
> CCn1nc(C(C)C)cc1C(=O)NCc1sccc1C
    -3 | -1
> O=C(CSc1ccc2nnc(CCNS(=O)(=O)c3ccccc3)n2n1)Nc1ccccc1F
    -15 | -16
> S=c1[nH]nc(COc2ccccc2Cl)n1C1CC1
    12 | 7
> O=C(Nc1ccccc1C(F)(F)F)N1CCC(c2nc3ccccc3[nH]2)CC1
    -1 | -2
> COc1cccc(/C=C2\NC(=S)NC2=O)c1O
    6 | 1
> Cc1ccc(-n2c(=O)n(Cc3ccco3)c(=O)c3[nH]cnc32)c(C)c1
    4 | 0
> O=C(CCN(c1nc(C2CC2)nc2cc(Cl)ccc12)C1CC1)NCc1cccc(C(F)(F)F)c1
    19 | 27
> COC(=O)c1cc2n(n1)CCN(c1ccnc(SC)n1)C2
    4 | 1
> COC(=O)COc1ccc(C=NNC(=O)C(O)(c2ccccc2)c2ccccc2)cc1OC
    -3 | -4
> COc1ccc(N=C(C)CC2=[N+](c3ccccc3)C(C)(O)CS2)cc1 (stereo unspecified)
    -1 | -1
> CNC(=S)NN=C(C)c1ccc(C)o1
    6 | 3
> C=CCN(C(=O)CSC(=S)OCC)c1nc(-c2ccc([N+](=O)[O-])cc2)cs1
    -4 | -9
> Cc1cccc(Cn2ccnc2CN(CC(C)C)C(=O)c2ccc(Cl)cc2)c1
    25 | 40
> FC(F)(F)c1nc(N2CCCC2c2nc3ccccc3s2)c2ccccc2n1 (stereo unspecified)
    9 | 15
> CC1CCN(C(=O)c2cc(NC(=O)c3ccc(F)cc3)c(=O)n(C)c2)CC1
    3 | 2
> O=c1ccn(Cc2csc(-c3ccc(F)cc3)n2)c(Cl)c1
    15 | 11
> Cc1c(CNC(C)Cn2cccn2)c2ccccc2n1CC(N)=O (stereo unspecified)
    1 | -4
> Cc1ccc(-c2cc(C(=O)N3CCN(C/C=C/c4ccccc4)CC3)n(C)n2)cc1C
    -1 | 9
> COc1ccccc1-c1ccc(N2CCCC(C(=O)Nc3ncccc3C)C2)nn1 (stereo unspecified)
    -12 | -17
> O=c1nc(SCc2cccc3ccccc23)c2c(n1CCO)CCCC2
    -13 | -18

Given field by field: entries from further up.
Cc1c(CNC(C)Cn2cccn2)c2ccccc2n1CC(N)=O (stereo unspecified)
  NPYLR7 ag: 1
  NPYLR7 ag max-min: -4

Cc1ccc(-c2cc(C(=O)N3CCN(C/C=C/c4ccccc4)CC3)n(C)n2)cc1C
  NPYLR7 ag: -1
  NPYLR7 ag max-min: 9

More compounds follow:
The line under a structure holds: NPYLR7 ag | NPYLR7 ag max-min
> Cc1sc2nc(-c3cccs3)oc(=O)c2c1C
    17&19 | 19&10
> CCCCCCCCC(=O)N1CCC2(CC1)C(=O)N(CC(=O)NCC1CCCO1)CN2c1ccccc1 (stereo unspecified)
    -3 | 7
> CC(C)CC(=O)N1CCN(c2nc(Cc3ccc(F)cc3)ns2)CC1
    14 | 15
> CC(=O)N(c1ccccc1)N1C(=O)CSC1=S
    1 | -1
> N#Cc1ccc(C(=O)NC2(c3ccc(Br)cc3)CC2)cc1
    0 | -3
> O=C(CCC1CCCC1)Nc1c(-c2cc(F)ccc2F)nc2ccccn12
    -10 | -7
> Cc1ccc(NC(=O)CNCc2scnc2-c2ccccc2)c(C)c1
    2 | -1
> Nc1cnc(-c2cccc3cccnc23)cn1
    -4 | -9
> CC(C)(C)C(=O)Nc1ccnn1C1CCN(C(=O)CC2=CCCCC2)CC1
    5&3 | 1&2
> CCOC(=O)C1CCCN(C(=O)c2nn(-c3ccc(C(C)C)cc3)c(=O)n(Cc3ccccc3C)c2=O)C1 (stereo unspecified)
    -3 | 3
> CC(C)Cc1ncc2c(n1)CN(C(=O)Cc1cccnc1)C2
    7 | 4
> CCOc1ccccc1CN1CCN(C2CCOCC2)CC1CCO (stereo unspecified)
    2 | -1
> O=C(c1ccc(-c2ccccc2)cc1)C1CCCN(C(=O)c2ccsc2)C1 (stereo unspecified)
    -2&14 | -4&5
> COCCN(Cc1cccc(OS(=O)(=O)c2ccc(F)cc2)c1)C(=O)c1ccccc1Cl
    -3 | 8
> O=C1c2ccccc2C(=O)N1Cn1nnn(-c2ccccc2)c1=O
    11 | 8
> CCOC(=O)C1(C)CCCN1C(=O)c1ccoc1 (stereo unspecified)
    -3 | -6
> CC1=C(C(=O)Nc2ccccc2C)C(c2ccccc2O)NC(=O)N1 (stereo unspecified)
    -2 | -8
> COc1ccc(CN2CCC(c3ccccc3Cl)C2)cc1C(=O)O (stereo unspecified)
    -2 | -1
> COc1cc(C2C(C(=O)OCCc3ccccc3)=C(C)NC3=C2C(=O)CC(c2ccccc2)C3)ccc1O (stereo unspecified)
    4 | 7
> CCC(c1ccc(F)cc1F)N1CCCC(C(=O)Nc2ncccc2C)C1 (stereo unspecified)
    4 | 1
> COc1ccc(-n2ccnc2CN2CCC(NS(C)(=O)=O)CC2)cc1
    -4 | -4
> O=C(NCCNC(=O)[C@H]1CCCN1C(=O)c1cc(Cl)cc(Cl)c1)c1ccc(F)cc1
    -11 | -8
> O=C(NCc1ccc(-n2cncn2)cc1)c1scc2c1OCCO2
    7 | 7
> COCc1c(C(=O)OC)nnn1-c1nonc1N
    4 | 2
> Cc1cccc(C(=O)N2CCCC(OCc3ccc(F)c(F)c3)C2)c1 (stereo unspecified)
    -3 | 3
> CCCCCC1C(=O)CCC1CC(=O)O (stereo unspecified)
    -13 | -17
> CN(c1ncccc1CNCc1ccc2c(c1)CCO2)C1CCCCC1
    2 | 1
> CC(C)Oc1cccc(Nc2cc(C3(C(=O)NCC4CCCO4)CC3)ccn2)c1 (stereo unspecified)
    13 | 25
> Cc1cc(C)nc(Sc2ncnc3sc(C)c(C)c23)n1
    1 | 4
> Cc1ccc(O)c(NC(=O)Cn2nc([N+](=O)[O-])c(Br)c2C)c1
    -19 | -25
> CCCN1CC(NC(=O)c2nnc3n2CCCC3)CC1=O (stereo unspecified)
    -5 | -7
> C/C=C/C(=O)NC1CCc2[nH]c3ccc(Br)cc3c2C1 (stereo unspecified)
    16 | 7
> CN1CCc2cc(C(CNC(=O)c3ccco3)N3CCOCC3)ccc21 (stereo unspecified)
    7 | 3
> CCCCN(CC(=O)N1c2ccccc2-n2cccc2C1c1ccc(OC)cc1)C(=O)Nc1ccc(F)c(Cl)c1 (stereo unspecified)
    -11 | -8
> O=C(c1ccccc1OCc1ccccc1)C1OC1c1ccc2c(c1)OCCO2 (stereo unspecified)
    -3 | -2
> NCCC(=O)N[C@@H](Cc1cnc[nH]1)C(=O)O
    -6 | -12
> COc1cc(C=CC(=O)N2CCN(Cc3ccc(C(F)(F)F)cc3)CC2)cc2c1OCCO2
    3 | 6
> O=C(O)c1ccc(CN2CCN(c3nccc4ccccc34)CC2)cc1
    20 | 16
> COCCN(Cc1c(-c2ccccc2)nn(C)c1Oc1ccccc1OC)CC(C)O (stereo unspecified)
    -6 | -4
> CC1=C[C@@H](CNC(=O)CC(C)(C)CC(=O)O)[C@H](C(C)C)C[C@H]1CC(=O)N(C)Cc1ccccc1
    -9 | -14
> CC(=O)Nc1ccc(S(=O)(=O)c2c(N)n(-c3cccc(C)c3)c3nc4ccccc4nc23)cc1
    -5 | -8
> Cc1nn(-c2ccccc2)c(Oc2ccc(F)cc2F)c1CN(CC(O)CN1CCOCC1)CC1CC1 (stereo unspecified)
    7 | 6

High-throughput results as filed in PubChem.
